# High-throughput results (PubChem BioAssay)
# GALR2 agonist – activates the human galanin receptor 2; activation, %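 (tested at 5 µM)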; AID 803; GALR2-expressing cells, agonist activation read-out; 0.48% of 140,000 active;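 active means above mean plus 3 SD of all compounds, about 5% in these data, not always enough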;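 further: 0% = vehicle buffer wells and 100% = reference agonist at full effect; tested in CHO reporter cells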
# Target sequence (O43603 whole entry, looked up): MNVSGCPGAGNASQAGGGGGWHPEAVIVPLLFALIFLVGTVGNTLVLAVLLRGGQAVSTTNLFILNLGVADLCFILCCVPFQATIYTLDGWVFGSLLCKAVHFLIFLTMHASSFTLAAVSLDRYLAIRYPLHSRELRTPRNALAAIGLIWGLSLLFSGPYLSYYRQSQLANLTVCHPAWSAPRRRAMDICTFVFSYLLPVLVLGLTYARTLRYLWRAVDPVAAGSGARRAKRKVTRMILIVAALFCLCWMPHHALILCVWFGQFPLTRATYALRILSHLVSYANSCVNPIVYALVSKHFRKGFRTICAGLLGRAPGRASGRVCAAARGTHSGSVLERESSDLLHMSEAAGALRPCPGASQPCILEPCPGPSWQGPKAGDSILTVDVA
# INS promoter inh – TRM-6 insulin promoter activity inhibition; inhibition, % at 2 µM; TRM-6 cells (human fetal islet line), insulin promoter-eGFP reporter, imaging; reporter expression induced with tamoxifen; 0.9% of 130,000 active;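 active means inhibition above the mean plus 3 SD, with well images judged a real hit on visual review, cut at about 60% in these data, passing the limit was not always enough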
# HSV augment – HSV replication enhancement | HSV replication augmentation in cells, fold increase | maximum fold increase | 0.005% of 220,000 active;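 active means peak rise of 1.5-fold or more in the series; tested in PC3 cells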;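 further: first round at 10 µM; read as green reporter fluorescence; hits show the peak of a series up to 25 µM; 1 = signal of infected wells without compound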
# RGS16-Gao HTS – regulators of human RGS16-Galphao interaction; O15492+P09471; bead-based flow cytometry RGS16-Galphao binding, fluorescence; actives lie on both sides; binding response (% of control), % at 10 µM; 0.38% of 220,000 active;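 active means below 25% or above 175%, edge rows of some plates excepted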;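 further: Galphao activated by GDP with aluminum fluoride before binding; 100% = wells without compound and 0% = beads without RGS; some results beyond the cut were filed as inactive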
# Target sequence (O15492 whole entry, looked up): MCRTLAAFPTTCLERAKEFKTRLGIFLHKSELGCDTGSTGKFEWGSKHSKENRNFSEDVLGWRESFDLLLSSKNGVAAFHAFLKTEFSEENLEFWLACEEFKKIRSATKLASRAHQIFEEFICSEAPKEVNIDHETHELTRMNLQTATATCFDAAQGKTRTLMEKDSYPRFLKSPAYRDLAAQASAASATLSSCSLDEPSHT
# Target sequence (P09471 whole entry, looked up): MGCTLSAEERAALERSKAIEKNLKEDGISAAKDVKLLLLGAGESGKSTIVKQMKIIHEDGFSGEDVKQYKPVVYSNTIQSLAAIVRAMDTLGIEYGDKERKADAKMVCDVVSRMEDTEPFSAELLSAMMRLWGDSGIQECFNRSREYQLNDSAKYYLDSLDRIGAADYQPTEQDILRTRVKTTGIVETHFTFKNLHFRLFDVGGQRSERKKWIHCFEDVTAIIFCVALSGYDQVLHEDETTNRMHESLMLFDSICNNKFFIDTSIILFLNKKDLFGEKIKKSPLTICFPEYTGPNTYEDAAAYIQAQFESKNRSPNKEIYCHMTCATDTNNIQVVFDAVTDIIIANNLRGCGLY
# PKD1 kinase inh – inhibitors of human PKD1 kinase. Q15139. 0.056% of 200,000 active. PKD1 kinase fluorescence polarization assay. inhibition, %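 (about 10 µM by stock and volumes)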;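 active means inhibition of 50% or more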;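 further: controls were vehicle for no effect and a reference inhibitor for full effect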
# INS promoter inh cell count – further read-out of INS promoter inh, marked with its call; normalized cell count, %; measured here: cell count, toxicity; reference of the scale not given here;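 cells exposed to compound for 48 h; stained nuclei by imaging scaled within each plate; lower means fewer cells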
# HSV augment primary fold – also measured in HSV augment; calls as there; fold increase; compound at 10 µM; measured here: primary screen fold increase 10 uM; tested in PC3 cells;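 GFP signal in the first replicate; 1 = infected wells without compound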
# Numbers without * were called inactive; i = inactive; nt = no result given.
no. | SMILES | GALR2 agonist | INS promoter inh | INS promoter inh cell count | HSV augment | HSV augment primary fold | RGS16-Gao HTS | PKD1 kinase inh
1 | CC(C)N(C(=O)COC(=O)[C@H](C)NC(=O)c1ccco1)c1ccccc1 | nt | 25 | 131 | i | 0.91 | 111 | 0
2 | Cc1cccc(-n2c(N)cc(=O)nc2SCC(=O)Nc2cc(C)on2)c1 | -0.3 | 19 | 102 | i | 0.91 | 102 | -2
3 | Cc1nc(N2CCN(c3ccccn3)CC2)c2c(C)c(C(=O)Nc3ccc(F)cc3)sc2n1 | nt | nt | nt | i | 0.83 | 95 | 7
4 | CCOC(=O)C(Sc1cc(-c2ccccc2)nc2ncnn12)C(C)=O (centres undefined) | nt | nt | nt | i | 1.1 | 83 | nt
5 | CCOC(=O)c1ccc(NC(=O)CCNS(=O)(=O)c2ccc3c(c2)oc(=O)n3C)cc1 | -1.1 | nt | nt | i | 0.77 | 106 | 3
6 | O=C(Nc1c2c(nc3ccccc13)CCCC2)c1ccccc1Cl | -2.0 | -18 | 80 | i | 1.2 | 99 | -3
7 | COc1ccccc1-c1nc2n(n1)C(c1cccs1)C(C(=O)Nc1cccnc1)=C(C)N2 (centres undefined) | -1.0 | 9 | 91 | i | 0.55 | 94 | -1
8 | CC(=O)Cc1nsc(Nc2cccc(C)c2)n1 | nt | -49 | 145 | i | 0.86 | 104 | 6
9 | O=C(COC(=O)c1ccc(-c2ccccc2)cc1)Nc1ccccc1-c1ccccc1 | -2.0 | 0 | 115 | i | 0.85 | 89 | 2
10 | CS(=O)(=O)c1ccc2nc(NC(=O)c3ccc(S(=O)(=O)NCC4CCCO4)cc3)sc2c1 (centres undefined) | nt | -14 | 117 | i | 0.93 | 101 | -7
11 | CCC[N+](CC#CCO)(CC#Cc1ccccc1)CCC | nt | nt | nt | i | 0.76 | 98 | nt
12 | C=CCn1c(SCC(=O)NC(=O)NCC(C)C)nnc1C1CCCCC1 | -1.4 | nt | nt | i | 1 | 108 | -12
13 | O=C(O)c1cccc(N2C(=O)c3ccc4c5c(ccc(c35)C2=O)C(=O)N(c2cccc(C(=O)O)c2)C4=O)c1 | nt | nt | nt | i | 0.89 | 102 | nt
14 | COC(=O)c1cc(-c2ccccc2)sc1NC(=O)c1cc(C)on1 | -1.7 | nt | nt | i | 0.91 | 113 | -8
15 | Cc1cc(NC(=O)COC(=O)c2ccccc2S(=O)(=O)N(C)c2ccccc2)no1 | nt | nt | nt | i | 0.87 | 100 | -2
16 | CCOc1cc(OCC)cc(C(=O)O)c1 | -0.4 | 16 | 167 | i | 0.85 | 99 | 2
17 | CCCCCOc1ccc2oc(=O)c3c(c2c1)CCCN3C(=O)CN1CCCC(C(=O)OCC)C1 (centres undefined) | -1.5 | -29 | 134 | i | 0.9 | 101 | 3
18 | CCN(CC)c1ccc(/C=c2\sc3nc4ccccc4n3c2=O)c(O)c1 | nt | 39 | 198 | nt | nt | 102 | 2
19 | COc1cc(C)c(C(C)C)cc1S(=O)(=O)n1ccnc1 | -0.3 | 9 | 84 | i | 0.89 | 97 | -9
20 | CCOC(=O)Nc1cc(C(=O)OC)cc(C(=O)OC)c1 | -0.9 | nt | nt | i | 0.96 | 100 | 1

# Structural class: the compounds so far with an aryl methoxy group
no. | SMILES | GALR2 agonist | INS promoter inh | INS promoter inh cell count | HSV augment | HSV augment primary fold | RGS16-Gao HTS | PKD1 kinase inh
7 | COc1ccccc1-c1nc2n(n1)C(c1cccs1)C(C(=O)Nc1cccnc1)=C(C)N2 (centres undefined) | -1.0 | 9 | 91 | i | 0.55 | 94 | -1
19 | COc1cc(C)c(C(C)C)cc1S(=O)(=O)n1ccnc1 | -0.3 | 9 | 84 | i | 0.89 | 97 | -9

# (list continues)
no. | SMILES | GALR2 agonist | INS promoter inh | INS promoter inh cell count | HSV augment | HSV augment primary fold | RGS16-Gao HTS | PKD1 kinase inh
21 | CCCN1CCC(NC(=O)Nc2cc(Cl)ccc2OC)CC1 | nt | nt | nt | i | 0.81 | 111 | 2
22 | CC1CCN(c2ccc(NC(=O)c3ccccc3[N+](=O)[O-])cc2)CC1 | nt | nt | nt | i | 0.99 | 112 | -6
23 | CCc1ccc(N(CC(=O)NC2CCCC2)S(=O)(=O)c2c(C)noc2C)cc1 | 0.1 | nt | nt | i | 0.92 | 101 | -6
24 | O=C(c1cccnc1)N1CCN(c2c(Cl)cccc2[N+](=O)[O-])CC1 | -2.4 | -17 | 131 | i | 1 | 108 | 5
25 | Oc1ccccc1N=Cc1ccc[nH]1 | -1.7 | nt | nt | i | 0.93 | 84 | 12
26 | COc1cccc(NC(=O)c2c(C)cc(C)cc2CC(C)(C)C(=O)O)c1 | nt | nt | nt | i | 1.1 | 100 | nt
27 | O=C(CSc1nnc(Cn2c(=O)sc3ccccc32)n1CCc1ccccc1)N1CCOCC1 | 0.8 | nt | nt | i | 1 | 102 | 12
28 | CN(CCS(=O)(=O)c1ccc(Cl)cc1)Cc1cccnc1 | nt | nt | nt | i | 0.99 | 101 | nt
29 | CC(=O)c1cccc(NC(=O)CCS(=O)(=O)c2ccc(Br)s2)c1 | nt | 7 | 68 | i | 0.97 | 102 | 7
30 | CCN(CC)S(=O)(=O)c1ccc(C(=O)OCCN2C(=O)CCC2=O)cc1 | -2.7 | nt | nt | i | 0.91 | 98 | -7
31 | Cc1cccc(NC(=O)CSCc2nc3c(nnn3Cc3ccc(F)cc3)c(=O)[nH]2)c1C | nt | -33 | 114 | i | 1 | 104 | -1
32 | COc1ccccc1-c1c(C)oc2c(CN3CCN(CCO)CC3)c(O)ccc2c1=O | -2.7 | 38 | 121 | nt | nt | 94 | 10
33 | Cc1ccc(C)c(NC(=O)C2CCC(C)(C(=O)O)C2(C)C)c1 (centres undefined) | -2.7 | nt | nt | i | 0.8 | 101 | -3
34 | CSC1=N/C(=C\c2cccc(F)c2)C(=O)S1 | -1.1 | 3 | 194 | i | 0.95 | 88 | 4
35 | CC(C)Sc1nc(-c2ccccc2)cc(=O)[nH]1 | -4.7 | -41 | 171 | i | 1 | 90 | -4
36 | O=C(/C=C\Nc1ccccn1)c1ccc(Cl)cc1 | -1.2 | 27 | 98 | i | 1.2 | 102 | -6
37 | CCc1nc(SCC(=O)NCCc2ccccc2)c2c(=O)n(C)c(=O)n(C)c2n1 | nt | nt | nt | i | 1 | 94 | nt
38 | COC(=O)c1ccc(/C=N/N2CCN(Cc3ccc(C)cc3C)CC2)cc1 | -1.0 | 24 | 138 | i | 1 | 109 | -4
39 | O=c1cc(CO)oc(C(Nc2cccc(C(F)(F)F)c2)c2ccccn2)c1O (centres undefined) | nt | nt | nt | i | 1.1 | 95 | -10
40 | CCCCNC(=O)c1ccc(NC(=O)C2CCCO2)cc1 (centres undefined) | -0.4 | nt | nt | i | 1.1 | 110 | -7

# Two records picked at random from those above, as already listed:
no. | SMILES | GALR2 agonist | INS promoter inh | INS promoter inh cell count | HSV augment | HSV augment primary fold | RGS16-Gao HTS | PKD1 kinase inh
22 | CC1CCN(c2ccc(NC(=O)c3ccccc3[N+](=O)[O-])cc2)CC1 | nt | nt | nt | i | 0.99 | 112 | -6
27 | O=C(CSc1nnc(Cn2c(=O)sc3ccccc32)n1CCc1ccccc1)N1CCOCC1 | 0.8 | nt | nt | i | 1 | 102 | 12

# Among those listed so far, these contain an NH in an aromatic ring.
no. | SMILES | GALR2 agonist | INS promoter inh | INS promoter inh cell count | HSV augment | HSV augment primary fold | RGS16-Gao HTS | PKD1 kinase inh
25 | Oc1ccccc1N=Cc1ccc[nH]1 | -1.7 | nt | nt | i | 0.93 | 84 | 12
31 | Cc1cccc(NC(=O)CSCc2nc3c(nnn3Cc3ccc(F)cc3)c(=O)[nH]2)c1C | nt | -33 | 114 | i | 1 | 104 | -1
35 | CC(C)Sc1nc(-c2ccccc2)cc(=O)[nH]1 | -4.7 | -41 | 171 | i | 1 | 90 | -4

# Continuation.
no. | SMILES | GALR2 agonist | INS promoter inh | INS promoter inh cell count | HSV augment | HSV augment primary fold | RGS16-Gao HTS | PKD1 kinase inh
41 | CC1=C(C(=O)c2ccccc2)C(c2ccc(O)cc2)NC(=S)N1 (centres undefined) | nt | nt | nt | i | 1 | 104 | nt
42 | C=CCN1N=C(c2ccc(Cl)s2)CSC1=O | 0.3 | -4 | 109 | i | 1.1 | 461 | -6
43 | COc1ccc(CC(=O)Nc2cccc(S(=O)(=O)N3CCCCCC3)c2)cc1OC | -0.8 | -11 | 164 | i | 0.92 | 97 | -11
44 | COc1ccc(-c2cn3cccnc3n2)cc1Br | -0.5 | 7 | 106 | i | 0.92 | 106 | 0
45 | COc1ccc(C(=O)NCC(=O)N/N=C/c2c(C)[nH]c3ccccc23)cc1OC | nt | nt | nt | i | 1.1 | 103 | nt
46 | COc1ccc(CCN=Cc2c(C)[nH]n(-c3ccc([N+](=O)[O-])cc3)c2=O)cc1OC | nt | 57 | 93 | i | 1 | 50 | 3
47 | O=C(COc1cc(=O)n2c(n1)SCCC2)c1ccccc1 | -3.2 | -23 | 63 | i | 0.86 | 100 | -9
48 | Cc1ccc(C)n1-c1ccc(C(=O)NC2CCN(Cc3ccccc3)CC2)cc1 | -1.6 | 43 | 173 | i | 0.92 | 106 | -5
49 | CCn1c(CNC(=O)c2ccccc2)nnc1SCC(=O)N1CCN(c2ccccc2)CC1 | -2.4 | -72 | 91 | i | 0.88 | 105 | -1
50 | COC(=O)C1=C(N)Oc2cc(C)n(C)c(=O)c2C1c1ccc(Cl)cc1 (centres undefined) | -1.3 | -9 | 73 | i | 0.8 | 101 | 3
51 | CC(=O)NC(=S)NNC(=O)CCc1ccccc1 | nt | 22 | 41 | i | 1.1 | 96 | 1
52 | Cn1c(=O)c(C(=O)CN2CCCc3ccccc32)c(N)n(Cc2ccccc2)c1=O | -0.9 | -67 | 108 | i | 1.1 | 101 | 4
53 | Cc1ccc(OCC(=O)Nc2ccccc2Sc2ccccc2)c([N+](=O)[O-])n1 | -0.6 | 7 | 87 | i | 0.84 | 105 | 1
54 | CCC(c1nnnn1Cc1ccco1)N(Cc1cc2cc(OC)ccc2[nH]c1=O)C1CCCCC1 (centres undefined) | -1.3 | nt | nt | i | 1.1 | 98 | 12
55 | Cc1noc(C)c1S(=O)(=O)Nc1ccc(C(=O)NCCc2ccccc2)cc1 | -0.7 | nt | nt | i | 0.99 | 107 | -7
56 | CCOC(=O)COc1ccc(S(=O)(=O)N2CCc3ccccc3C2)cc1 | -1.7 | 8 | 110 | i | 0.87 | 111 | -2
57 | CCCCn1c(=O)c2ccccc2c2ccccc2c1=O | -4.3 | 50 | 117 | i | 0.97 | 104 | 1
58 | Cc1c2c([n+]3n1CCC3)CC(C)(C)CC2=O | -0.3 | 7 | 120 | i | 0.93 | 121 | -2
59 | COc1ccc(C2OC(=O)CC2C(=O)NCc2ccccc2Cl)cc1OC (centres undefined) | nt | 8 | 43 | i | 0.99 | 101 | -6
60 | CC/C(=N\O)c1ccc(OC)c(OC)c1 | 0.0 | -21 | 197 | i | 1 | 100 | 1

no. | SMILES | GALR2 agonist | INS promoter inh | INS promoter inh cell count | HSV augment | HSV augment primary fold | RGS16-Gao HTS | PKD1 kinase inh
61 | Clc1ccc(-c2ccnc(Oc3cc(Cl)ccc3Cl)n2)cc1 | 0.4 | 50 | 82 | i | 1 | 98 | 12
62 | CC(=O)c1cc(CN2CCN(C(C)C)C(CCO)C2)cs1 (centres undefined) | nt | nt | nt | i | 0.97 | 96 | 8
63 | CCCCOC(=O)CSc1nc(N)c(C#N)c(-c2ccc(OC)cc2)c1C#N | -2.8 | nt | nt | i | 1.1 | 99 | 0
64 | CC1CCC(N2CCNCC2)CC1 (centres undefined) | nt | nt | nt | i | 0.89 | 98 | -3
65 | CSc1ccc2nnc(-c3cccc(F)c3)n2n1 | 0.7 | nt | nt | i | 0.83 | 95 | -8
66 | Cc1cc(F)ccc1NC(=O)C(C)n1c2ccccc2c2nc(=O)cc(C)n21 (centres undefined) | nt | nt | nt | i | 0.9 | 89 | nt
67 | CCCCn1c(=O)c(CCC(=O)OCC(=O)Nc2cccc3ccccc23)nc2ccccc21 | -1.5 | -31 | 84 | i | 1 | 62 | -3
68 | Cc1ccccc1Cn1nc(C)c(NC(=O)c2noc3c2CCc2ccccc2-3)c1C | -0.9 | nt | nt | i | 0.88 | 99 | 11
69 | Nc1cc(Cl)nc(N/N=C/c2c(O)ccc3ccccc23)n1 | -2.2 | -233 | 0 | i | 0.78 | 99 | 11
70 | CCc1ccc(-c2cc(C(=O)NCc3ccccn3)c3ccccc3n2)cc1 | -1.3 | -7 | 68 | i | 0.9 | 183 | -7
71 | Cc1ccccc1Cn1cc(NC(=O)c2noc3c2CC(C(C)(C)C)CC3)cn1 (centres undefined) | 0.2 | -4 | 116 | i | 0.92 | 97 | -5
